# FGF22 binding – FGF22 (human) thermal shift binding; Q9HCT0; recombinant FGF22 thermal shift, SYPRO orange fluorescence; percent of sucrose octasulfate shift, DMSO zero; calls only at 9.99 µM; 340,000 tested, 1.5% active; AID 651658;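 active means melting point raised past a set limit in the mean and every replicate; three in four hits are not shown here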
# Target sequence (Q9HCT0 whole entry, looked up): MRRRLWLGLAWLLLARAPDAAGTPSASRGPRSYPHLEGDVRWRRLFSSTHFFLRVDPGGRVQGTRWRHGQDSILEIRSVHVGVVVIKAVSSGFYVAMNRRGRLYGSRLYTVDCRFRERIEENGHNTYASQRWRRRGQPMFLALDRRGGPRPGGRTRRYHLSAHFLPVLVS
# MLL AF4-AF9 inh – MLL-AF4/AF9 protein interaction inhibition. 350,000 tested, 0.47% active. AlphaScreen, biotin-AF4 peptide binding to FLAG-AF9. inhibition, % at 10 µM. P42568. AID 651704;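 active means every replicate reaching a set inhibition limit, whatever the replicate mean, cut at about 25% in these data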;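 further: 0% = plate neutral control median and 100% = total signal loss; the record names both 10 and 1 µM as test concentration; the first replicate is given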
# Target sequence (P42568 whole entry, looked up): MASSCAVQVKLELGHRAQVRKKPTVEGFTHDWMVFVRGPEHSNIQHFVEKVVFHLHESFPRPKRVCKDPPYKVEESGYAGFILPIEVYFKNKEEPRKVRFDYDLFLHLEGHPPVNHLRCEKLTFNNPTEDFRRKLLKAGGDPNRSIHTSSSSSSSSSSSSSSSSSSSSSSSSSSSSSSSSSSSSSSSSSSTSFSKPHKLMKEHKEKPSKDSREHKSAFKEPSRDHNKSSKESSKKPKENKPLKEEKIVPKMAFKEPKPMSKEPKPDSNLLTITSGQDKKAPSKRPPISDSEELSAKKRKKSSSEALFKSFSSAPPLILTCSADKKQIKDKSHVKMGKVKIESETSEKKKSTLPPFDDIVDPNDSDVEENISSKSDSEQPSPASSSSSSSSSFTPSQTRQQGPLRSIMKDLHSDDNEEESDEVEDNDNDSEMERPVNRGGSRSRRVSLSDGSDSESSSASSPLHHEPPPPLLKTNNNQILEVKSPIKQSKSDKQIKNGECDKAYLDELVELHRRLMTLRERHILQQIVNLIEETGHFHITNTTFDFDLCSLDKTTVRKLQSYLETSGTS
# Active calls of the source: *; i = inactive; + = active, no number; & = joins results of further samples.
FGF22 binding	MLL AF4-AF9 inh	SMILES
i	5.2	C/C=C/c1ccc([C@@H]2[C@H](CO)N3CCCCN(S(=O)(=O)c4ccccc4)C[C@@H]23)cc1
i	-2.2	CCC(=O)Nc1ccc2c(c1)C(=O)N(C)C[C@H](OC)[C@@H](C)CN(Cc1ccncc1)[C@@H](C)CO2
i	-18	C[C@@H]1CCCCO[C@H](CN(C)S(C)(=O)=O)[C@@H](C)CN([C@@H](C)CO)C(=O)c2cc(NC(=O)CCCN(C)C)ccc2O1
i	-1.3	CNC[C@H]1Oc2cc(C#C[C@@H](C)O)ccc2S(=O)(=O)N([C@@H](C)CO)C[C@@H]1C
i	-0.9	Cc1noc(C)c1NC(=O)Nc1ccc2c(c1)C(=O)N([C@H](C)CO)C[C@H](C)[C@@H](CN(C)C(=O)Nc1ccccc1)OCCCC[C@@H](C)O2
i	-0.1	C[C@@H]1CN([C@@H](C)CO)C(=O)c2cc(NC(=O)Nc3ccc(C(F)(F)F)cc3)ccc2O[C@H]1CN(C)Cc1ccc(Oc2ccccc2)cc1
i	16	CCCC#Cc1ccc([C@H]2[C@@H](CO)N3CCCCN(CC4CC4)C[C@H]23)cc1
i	1.5	CCCC(=O)N1CC2(CN(C(=O)C3CCC3)C2)c2c(n(C)c3cc(OC)ccc23)[C@@H]1CO
i	-0.8	CC=Cc1ccc2n(c1=O)C[C@H]1[C@H](CO)[C@@H](C(=O)NCC(F)(F)F)N(CC3CC3)[C@@H]21 (mixture of isomers)
i	-1.6	CNC[C@H]1Oc2ccc(NC(=O)Nc3ccccc3)cc2C(=O)N([C@H](C)CO)C[C@@H]1C
i	-0.3	O=C(c1ccccc1F)N1CC[C@@H]2[C@H](CO)Nc3ccc(-c4ccc(F)cc4)cc3[C@@H]21
i	8.3	C[C@@H]1CN([C@H](C)CO)S(=O)(=O)c2ccc(C#CCC3CCCC3)cc2O[C@H]1CN(C)C(=O)CN(C)C
i	0.6	COc1cccc(S(=O)(=O)N2C[C@H](O)COC[C@H]3O[C@H](CC(=O)N4CCCCC4)CC[C@@H]32)c1
i	2.3	Cc1ccc(S(=O)(=O)N(C)C[C@@H]2OCCCC[C@H](C)Oc3ccc(NC(=O)Nc4ccccc4)cc3C(=O)N([C@H](C)CO)C[C@@H]2C)cc1
i	3.6	C[C@@H]1CN([C@@H](C)CO)C(=O)c2cccc(NC(=O)Nc3ccc4c(c3)OCO4)c2O[C@H]1CN(C)Cc1ccc(C(=O)Nc2ccccc2N)cc1
i	-16	C[C@H]1CN([C@@H](C)CO)C(=O)c2cc(-c3ccc(F)cc3)cnc2O[C@@H]1CN(C)CC1CCCCC1
i	3.3	COc1cccc(NC(=O)N(C)C[C@@H]2Oc3cc(/C=C/c4ccccc4)ccc3S(=O)(=O)N([C@@H](C)CO)C[C@@H]2C)c1
i	6.4	O=C(C[C@H]1CC[C@@H](NC(=O)Nc2cc(F)ccc2F)[C@@H](CO)O1)Nc1ccccc1
i	-3.4	Cc1cc(C(=O)Nc2cccc3c2O[C@H](CN(C)C(=O)Nc2ccc4c(c2)OCO4)[C@@H](C)CN([C@H](C)CO)C3=O)n(C)n1
i	-17	C[C@@H]1CCCCO[C@H](CN(C)CC2CCCCC2)[C@H](C)CN([C@@H](C)CO)C(=O)c2cc(NC(=O)Nc3ccc4c(c3)OCO4)ccc2O1
i	3.3	CN(C)CC(=O)Nc1ccc2c(c1)[C@@H]1C[C@H](CC(=O)N3CCc4ccccc4C3)O[C@@H](CO)[C@@H]1O2
i	-7.1	COc1cccc(NC(=O)N(C)C[C@H]2OCc3ccccc3-c3c(n(C)c4ccccc34)C(=O)N([C@H](C)CO)C[C@@H]2C)c1
i	-2.2	COc1ccc(CNC(=O)C[C@@H]2CC[C@H]3[C@@H](COc4ccc(NC(=O)C5CC5)cc4C(=O)N3C)O2)cc1
i	-7.2	O=C(C[C@@H]1C=C[C@H](NC(=O)c2ccc(F)cc2)[C@H](CO)O1)NCc1ccncn1
i	-3.2	CO[C@H]1CN(C)C(=O)c2cc(NC(=O)Nc3c(C)noc3C)ccc2OC[C@H](C)N(C)C[C@H]1C

# Rewritten with two lines to a compound: part of the list above.
# Under each structure: FGF22 binding	MLL AF4-AF9 inh
CCC(=O)Nc1ccc2c(c1)C(=O)N(C)C[C@H](OC)[C@@H](C)CN(Cc1ccncc1)[C@@H](C)CO2
    i	-2.2
C[C@@H]1CCCCO[C@H](CN(C)S(C)(=O)=O)[C@@H](C)CN([C@@H](C)CO)C(=O)c2cc(NC(=O)CCCN(C)C)ccc2O1
    i	-18
CNC[C@H]1Oc2cc(C#C[C@@H](C)O)ccc2S(=O)(=O)N([C@@H](C)CO)C[C@@H]1C
    i	-1.3
Cc1noc(C)c1NC(=O)Nc1ccc2c(c1)C(=O)N([C@H](C)CO)C[C@H](C)[C@@H](CN(C)C(=O)Nc1ccccc1)OCCCC[C@@H](C)O2
    i	-0.9
C[C@@H]1CN([C@@H](C)CO)C(=O)c2cc(NC(=O)Nc3ccc(C(F)(F)F)cc3)ccc2O[C@H]1CN(C)Cc1ccc(Oc2ccccc2)cc1
    i	-0.1
CCCC#Cc1ccc([C@H]2[C@@H](CO)N3CCCCN(CC4CC4)C[C@H]23)cc1
    i	16

# Additional records
FGF22 binding	MLL AF4-AF9 inh	SMILES
i	3.5	Cc1noc(C)c1NC(=O)N(C)C[C@H]1Oc2cc(C#CCC(C)C)ccc2S(=O)(=O)N([C@@H](C)CO)C[C@@H]1C
i	-3.6	C[C@H]1CN([C@@H](C)CO)C(=O)c2cc(C3=CCCC3)cnc2O[C@@H]1CN(C)C(=O)C1CCC1
i	-2.4	O=C(NC1CCC1)[C@H]1[C@H](CO)[C@H]2Cn3c(ccc(-c4cncnc4)c3=O)[C@@H]1N2CCc1ccccc1
i	7.6	COc1ccc(S(=O)(=O)N(C)C[C@@H]2Oc3ccc(NC(=O)Nc4ccc5c(c4)OCO5)cc3C(=O)N([C@H](C)CO)C[C@@H]2C)cc1
i	-5.5	COc1ccc(NC(=O)N(C)C[C@@H]2Oc3c(NC(=O)NC(C)C)cccc3C(=O)N([C@H](C)CO)C[C@H]2C)cc1
i	-2.5	O=C(C[C@@H]1C[C@H]2c3cc(NC(=O)CC4CC4)ccc3O[C@H]2[C@@H](CO)O1)NCc1ccccc1F
i	-0.2	COc1ccc(S(=O)(=O)Nc2ccc3c(c2)CC(=O)N([C@H](C)CO)C[C@H](C)[C@@H](CN(C)S(=O)(=O)c2cn(C)cn2)O3)cc1
i	-2.4	C[C@@H]1CN([C@H](C)CO)C(=O)c2cc(NC(=O)Nc3ccc4c(c3)OCO4)ccc2O[C@@H](C)CCCCO[C@@H]1CN(C)Cc1ccc(C(F)(F)F)cc1
i	-4.0	CCS(=O)(=O)N1CCC2(CC1)CN(Cc1cc(F)ccc1F)[C@H](CO)c1c2c2ccc(OC)cc2n1C
i	0.2	C[C@@H]1CN([C@@H](C)CO)C(=O)c2cccc(NS(=O)(=O)c3ccccc3)c2O[C@@H]1CN(C)C(=O)NC1CCCCC1
i	-1.4	COc1ccc(-c2cnc3c(c2)C(=O)N([C@@H](C)CO)C[C@@H](C)[C@@H](CN(C)C(=O)NC2CCCC2)O3)cc1
i	-5.6	C[C@@H]1CN([C@@H](C)CO)C(=O)c2cc(C#CCN(C)C)cnc2O[C@H]1CN(C)C(=O)CN1CCOCC1
i	0.3	CCCNC(=O)N1[C@H](CO)[C@@H](c2ccccc2)[C@H]1CNC(=O)c1ccccc1
i	-2.0	C[C@H](CO)N1C[C@H](C)[C@@H](CN(C)C(=O)Cc2ccccc2)Oc2ncc(C#Cc3ccccc3F)cc2C1=O
i	-1.8	CO[C@@H]1CN(C)C(=O)c2cc(NC(=O)C3CC3)ccc2OC[C@H](C)NC[C@@H]1C
i	13	O=C(NCC[C@H]1CC[C@H](NC(=O)Nc2cc(F)ccc2F)[C@H](CO)O1)Nc1ccc(F)cc1
i	-1.7	C[C@@H]1CN([C@H](C)CO)C(=O)c2cccc(NC(=O)c3nc4ccccc4s3)c2O[C@H]1CN(C)C
i	-0.8	C[C@@H]1CCCCO[C@H](CN(C)C(=O)NC2CCCCC2)[C@@H](C)CN([C@@H](C)CO)C(=O)c2cc(NC(=O)c3ccncc3)ccc2O1
i	0.7	C[C@@H]1CN([C@@H](C)CO)C(=O)c2cc(NC(=O)Nc3ccccc3)ccc2O[C@@H]1CN(C)S(=O)(=O)c1ccc(Cl)cc1
i	-2.0	COc1ccc(S(=O)(=O)N(C)C[C@H]2Oc3ccc(NC(=O)CCCCCC(=O)Nc4ccccc4N)cc3CC(=O)N([C@H](C)CO)C[C@@H]2C)cc1
i	-16	CCC(=O)N1CC2(CN(C(=O)Cc3ccccc3)C2)c2c(n(C)c3cc(OC)ccc23)[C@@H]1CO
i	11	O=C(C[C@H]1CC[C@H]2[C@@H](COC[C@H](O)CN2Cc2ccccc2F)O1)N[C@@H]1CCN(Cc2ccccc2)C1
i	-2.1	C[C@H]1CN([C@@H](C)CO)C(=O)Cc2cc(NC(=O)Nc3ccccc3)ccc2O[C@H]1CN(C)C
i	-1.8	CO[C@H]1CN(C)C(=O)c2ccc(NS(=O)(=O)c3ccc(Cl)cc3)cc2OC[C@@H](C)N(C)C[C@H]1C
i	-1.3	C[C@H](CO)N1C[C@H](C)[C@@H](CN(C)S(=O)(=O)c2ccc(Cl)cc2)OCCCC[C@H](C)Oc2ccc(NC(=O)Nc3ccc4c(c3)OCO4)cc2C1=O
i	3.1	Cc1ccc(S(=O)(=O)N(C)C[C@@H]2Oc3c(NC(=O)c4nc5ccccc5s4)cccc3C(=O)N([C@H](C)CO)C[C@@H]2C)cc1
i	-2.8	Cc1ccc(S(=O)(=O)N(C)C[C@@H]2Oc3ncc(C#Cc4ccc(C(F)(F)F)cc4)cc3C(=O)N([C@H](C)CO)C[C@@H]2C)cc1
i	3.7	C[C@@H]1CN([C@@H](C)CO)C(=O)c2cc(NC(=O)Cn3cnnn3)ccc2O[C@H]1CN(C)Cc1ccc(Oc2ccccc2)cc1
i	-4.0	CCCNC(=O)N1C[C@@H](O)COC[C@H]2O[C@H](CC(=O)NCc3ccncn3)CC[C@@H]21
i	2.4	C[C@H](CO)N1C[C@H](C)[C@H](CN(C)Cc2ccccc2)Oc2ccc(NC(=O)CCN3CCOCC3)cc2CC1=O
i	-0.6	C[C@@H]1CCCCO[C@H](CN(C)S(=O)(=O)c2ccc(Cl)cc2)[C@@H](C)CN([C@H](C)CO)C(=O)c2cc(NC(=O)c3ccccc3)ccc2O1
i	-0.8	C[C@@H]1CN([C@H](C)CO)C(=O)c2cccc(NS(C)(=O)=O)c2O[C@H]1CN(C)Cc1ccc(Cl)c(Cl)c1
i	-1.5	N#C[C@H]1[C@H](c2ccc(C#Cc3ccc(F)cc3)cc2)[C@H](CO)N1C(=O)Nc1ccc(F)cc1
i	-3.6	O=C(c1cccnc1)N1C[C@@H]2[C@H](c3ccccc31)[C@@H](CO)N2C(=O)C1CCCC1
i	0.3	COc1ccc(NC(=O)N(C)C[C@H]2OCCCC[C@@H](C)Oc3ccc(NC(=O)NC(C)C)cc3C(=O)N([C@H](C)CO)C[C@H]2C)cc1
i	2.7	Cc1cccc(-c2ccc([C@H]3[C@@H](CO)N4CCCCN(Cc5cncnc5)C[C@@H]34)cc2)c1
i	2.5	CCCNC(=O)N(C)C[C@@H]1Oc2cc(-c3cccnc3)ccc2S(=O)(=O)N([C@@H](C)CO)C[C@@H]1C
i	5.3	CCCC#Cc1ccc2c(c1)O[C@H](CN(C)C(=O)c1ccccc1)[C@H](C)CN([C@H](C)CO)S2(=O)=O
i	3.3	COc1ccccc1C(=O)Nc1ccc2c(c1)C(=O)N(C)C[C@@H](OC)[C@@H](C)CN(C(C)=O)[C@H](C)CO2
i	3.7	COc1ccc(NC(=O)Nc2ccc3c(c2)C(=O)N([C@@H](C)CO)C[C@H](C)[C@@H](CN(C)C(=O)c2ccccc2)OCCCC[C@H](C)O3)cc1
i	-3.4	Cc1ccc(S(=O)(=O)N2CC[C@H]3[C@H](CO)Nc4ccc(-c5ccc(C#N)cc5)cc4[C@H]32)cc1
i	8.4	O=C(NCC[C@@H]1CC[C@H](NC(=O)Nc2cc(F)ccc2F)[C@@H](CO)O1)Nc1ccc(Cl)cc1
i	-13	COc1ccccc1S(=O)(=O)N[C@H]1C=C[C@H](CC(=O)N2CCCCC2)O[C@@H]1CO
i	-3.2	CCCNC(=O)N(C)C[C@H]1Oc2cc(-c3ccncc3)ccc2S(=O)(=O)N([C@@H](C)CO)C[C@@H]1C
i	2.1	Cc1cccc(Cl)c1NC(=O)NCCCN1CCOCC1
i	0.3	CCCNC(=O)Nc1ccc2c(c1)OC[C@H](C)N(C(=O)c1ccccc1F)C[C@H](C)[C@H](OC)CN(C)C2=O
+	11	O=C(NCC[C@@H]1CC[C@@H](NC(=O)Nc2cc(F)ccc2F)[C@@H](CO)O1)Nc1ccc(F)cc1
i	-21	Cc1noc(C)c1S(=O)(=O)Nc1ccc2c(c1)CC(=O)N([C@H](C)CO)C[C@@H](C)[C@H](CN(C)Cc1ccc3c(c1)OCO3)O2
i	0.1	CN1C(=O)c2cc(NC(=O)C3CCCC3)ccc2OC[C@H]2O[C@H](CC(=O)NCC3CC3)CC[C@@H]21
i	0.3&-3.3	C[C@H](CO)N1C[C@H](C)[C@H](CN(C)S(=O)(=O)c2cccc(F)c2)Oc2ncc(-c3cccc(F)c3)cc2C1=O
i	-0.5	CN(C[C@@H]1[C@@H](c2ccccc2)[C@H](CO)N1CC1CC1)C(=O)c1ccccc1

# Record cards, as listed above. Order of values: FGF22 binding, MLL AF4-AF9 inh
# Cc1noc(C)c1S(=O)(=O)Nc1ccc2c(c1)CC(=O)N([C@H](C)CO)C[C@@H](C)[C@H](CN(C)Cc1ccc3c(c1)OCO3)O2 is listed with i, -21
# Cc1ccc(S(=O)(=O)N2CC[C@H]3[C@H](CO)Nc4ccc(-c5ccc(C#N)cc5)cc4[C@H]32)cc1 is listed with i, -3.4

# Only part of the results is shown (hit frequency here may not be typical).
